Anaer choline gr = growth inhibitors of anaerobic choline-fed gram-negatives, minimal medium, absorbance. calls only. 0.2% of 55,000 active. AID 1963822, 2024. Gram-negative bacterium anaerobic choline minimal medium; stronger effect = lower value; many inactives read as strong as hits in the columns shown;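 active = growth z-score on choline under -2 at 7 or 20 h with little or no fall on glycerol, limits in tiers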;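 note: stock transfer was 300 nL into about 50 µL; the organism is E. coli; final concentration not given here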
Anaer choline gr early = further read-out of Anaer choline gr, marked with its call; z-score; measured here: choline growth z-score, timepoint 1;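 score of optical density at 7 h as mean of two plates; lower means less growth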
An asterisk follows results filed as active; i = inactive; & = joins results of further samples. An excerpt (hit frequency here may not be typical).

SMILES	Anaer choline gr	Anaer choline gr early
CCC1=NS(=O)(=O)c2cccnc2N1c1ccc(SC)cc1	i	0.49
Cc1ccc(Nc2nccc(C3CCCN(C(=O)C(C)(C)C)C3)n2)cc1 (stereo unspecified)	i	-1
COc1cccc(N2CC(C(=O)NCc3nnnn3-c3ccc(F)c(F)c3)CC2=O)c1 (stereo unspecified)	i	-0.16
COC(=O)c1cc(C)nc2c1c(=O)nc(SCc1nc(-c3ccccc3Cl)oc1C)n2C1CC1	i	0.62
CCOC(=O)c1cc(C)n(CC2CCC(C(=O)Nc3ccc(OC)cc3)CC2)c1C (stereo unspecified)	i	-1
Cc1cccc(C(=O)N(C)CCc2noc(C(=O)NCc3ccccc3)n2)c1	i	0.58
COc1ccc(N2C(=O)CCS2(=O)=O)cc1S(=O)(=O)N1CCOCC1	i	-1.1
CC(C)NC(=O)c1ccc(-c2nc3cc(NS(=O)(=O)c4cc(F)cc(F)c4)ccc3n2C)cc1	i	0.05
O=c1c2cc3c(cc2nc(SCc2nc(-c4cccc(Br)c4)no2)n1C1CC1)OCO3	i	-1.6
COc1ccc2c(c1)c(CC(=O)Oc1ccc(-c3cc(=S)ss3)cc1)c(C)n2C(=O)c1ccc(Cl)cc1	i	-0.48
Cc1ccnc(-n2c(C)c(C)c3c2ncn2nc(C(C)N4C(=O)c5ccccc5C4=O)nc32)c1 (stereo unspecified)	i	0.63
Cc1nc(-c2cc(S(=O)(=O)N3CCN(c4cccc(C)c4C)CC3)c(C)s2)cs1	i	-0.81
O=C(c1ccccc1)c1cnc2ccc(F)cc2c1S(=O)(=O)c1ccc(F)cc1	i	-0.95
COc1ccc(C2=C(C)C(=O)N(CC(=O)NC3CCCC3)S2(=O)=O)cc1	i	1
Cn1c(=O)c(C(=O)Nc2ccc3c(c2)OCCO3)nc2ccccc21	i	-0.38
Cc1ccc2nc(NC(C)c3ccccc3)c3nnnn3c2c1 (stereo unspecified)	i	1
CCc1cc(C2CCCN2C(=O)Nc2ccc3c(c2)OCCO3)on1 (stereo unspecified)	i	-0.31
Cc1ccc(C(=O)Cn2nc3n(C(C)C)c(=O)c4ccc(C(=O)NC(C)C)cc4n3c2=O)c(C)c1	i	1.2
CC(C)n1cnc(S(=O)(=O)N2CCC(C(=O)NC3CCCCC3)CC2)c1	i	-0.62
N#CC1=CN(c2ccc3c(c2)CCC3)c2ccc(F)cc2S1(=O)=O	i	1.1
Cc1ccc(-c2nc(C(=O)Nc3ccccc3F)c3n2CCCCC3)cc1	i	0.74
CC(C)(C)NCC(O)COc1nsnc1N1CCOCC1 (stereo unspecified)	i	0.7&0.61
CC(C)(CO)c1cc2cc(NC(=O)C3(c4ccc5c(c4)OC(F)(F)O5)CC3)c(F)cc2n1CC(O)CO (stereo unspecified)	i	0.7
COc1ccc(OC)c(NC(=O)C2=C(C)C(=O)OC23CCN(C(C)=O)CC3)c1	i	1.1
CC1CCN(CC[C@H]2CCCN2S(=O)(=O)c2cccc(O)c2)CC1	i	0.35&0

Other structures
SMILES	Anaer choline gr	Anaer choline gr early
O=C(CSc1ncnc2c1sc1cccc(F)c12)NCCc1c[nH]c2ccccc12	i	0.73
Cc1cccc(NC(=O)CSc2nc3ccccc3nc2N2CCC(C)CC2)c1	i	0.12
COc1ccc(-c2ocnc2C(=O)N2CC(OCc3ccc(F)cc3Cl)C2)cc1	i	2
Cc1c(C)n(-c2ccccc2)c2ncn(CC(=O)NCCc3ccc(S(N)(=O)=O)cc3)c(=O)c12	i	-0.41
CCN(Cc1ccccc1)c1ncc(C(=O)O)cc1NS(=O)(=O)c1cc(C)cc(C)c1	i	0.5
CCc1nc(-c2ccc(-c3noc(C4CCC4)n3)cc2)cs1	i	0.55
CNc1ncnc2c1ncn2C1OC(CO)C(O)C1O (stereo unspecified)	i	0.6
CC1CSc2ccccc2N(C(=O)C2CCN(S(=O)(=O)c3cccnc3)CC2)C1 (stereo unspecified)	i	0.05
CCC(C)NC(=O)c1cc2occc2c(Nc2ccc(Br)c(C)c2)n1 (stereo unspecified)	i	0.63
COC(=O)c1cc(S(=O)(=O)N(C)CC(=O)N2CCN(c3ccc(Cl)cc3)CC2)cn1C	i	-0.77
O=C(COc1cccc2ccc(N3CCCC3)nc12)Nc1ccc(Br)cc1	i	0.24
O=C(Cn1cnc2onc(-c3cccc(F)c3)c2c1=O)NC1CCCC1	i	0.15
Cn1cnc([N+](=O)[O-])c1Sc1ncnc2nc[nH]c12	i	4.6&-2
Cc1cc(-c2ccc(S(=O)(=O)Nc3ccc(S(N)(=O)=O)cc3)c(C)c2)on1	i	-0.91
CCCNC(=O)Cn1nc(-c2ccc(C)cc2)c2cnc3ccc(CC)cc3c21	i	-0.78
O=c1[nH]cccc1-c1nc(-c2ccc(Cl)cc2)no1	i	0.05
COc1ccccc1-c1c(C)nn2c(NCCC3=CCCCC3)cc(C)nc12	i	-1.1
COc1ccccc1NC(=O)Nc1nc(CC(=O)Nc2ccc(Br)cc2)cs1	i	0.55
Cc1cc(NC(=O)C(=O)c2cccn2C)no1	i	-2.2
N#Cc1nc(-c2ccc(S(=O)(=O)N3CCOCC3)cc2)oc1N1CCCC1	i	0.4
CCOC(=O)C1CCC(CNC(=O)Nc2cc3c(cc2N2CCOCC2)n(C)c(=O)n3C)CC1 (stereo unspecified)	i	-0.75
COc1ccccc1N1CCN(c2ccc(=O)n(CC(=O)N3CCN(C)CC3)n2)CC1	i	-0.39
O=S(=O)(Cc1ccccc1)N1CC(OCc2cccc(F)c2)C1	i	-0.6
CC(=O)N1CCCSc2ccc(S(=O)(=O)NCCN3CCC(C)CC3)cc21	i	-1.1
Cc1ccc(Cl)cc1NC(=O)C1CC2CSCN2C12C(=O)Nc1ccccc12 (stereo unspecified)	i	0.34

A different layout for two compounds above:
Under each structure – Anaer choline gr	Anaer choline gr early
CC(=O)N1CCCSc2ccc(S(=O)(=O)NCCN3CCC(C)CC3)cc21
→ i	-1.1
COC(=O)c1cc(S(=O)(=O)N(C)CC(=O)N2CCN(c3ccc(Cl)cc3)CC2)cn1C
→ i	-0.77

Returning to the listing with the 3 entries that preceded the break.
SMILES	Anaer choline gr	Anaer choline gr early
O=S(=O)(Cc1ccccc1)N1CC(OCc2cccc(F)c2)C1	i	-0.6
CC(=O)N1CCCSc2ccc(S(=O)(=O)NCCN3CCC(C)CC3)cc21	i	-1.1
Cc1ccc(Cl)cc1NC(=O)C1CC2CSCN2C12C(=O)Nc1ccccc12 (stereo unspecified)	i	0.34
Cc1ccc(Nc2nc3nonc3nc2Nc2ccccc2F)cc1Cl	i	-0.16
Cc1ccccc1-c1cc2n(C)c(C)c(CCC(=O)NCCC3=CCCCC3)c(=O)n2n1	i	0.76
CCOC(=O)c1cc(Cn2cnc3oc(C)c(C)c3c2=O)on1	i	2.6
CC(C)c1cc(C2CCCN2C(=O)NC2CCCCC2)no1 (stereo unspecified)	i	0.11
COc1cc(Cl)cc2c1OC=CC(C(=O)N1CCOCC1)=C2	i	-2
CN1CCN(S(=O)(=O)c2c[nH]c(=O)[nH]c2=O)CC1	i	0.37
CCS(=O)(=O)c1nc2ccc(NS(=O)(=O)c3cccc(F)c3)cc2s1	i	-0.12
Cc1ccc2c(c1)C(=O)C1(O)CCN(c3ccccc3)C1=N2 (stereo unspecified)	i	1&1.5&0.83
CCN1CC(=O)N(c2ccc(C)cc2)[C@@H]2CS(=O)(=O)C[C@@H]21	i	-1
Cc1ccc(CNC(=O)C2c3c(C)nn(-c4ccccc4)c3SCC(=O)N2c2ccc3c(c2)OCCO3)cc1 (stereo unspecified)	i	0.57
CCOC(=O)c1cn[nH]c1S(=O)(=O)Nc1cccc(C)c1	i	-0.88
Cc1cc2n(n1)CCC(=O)N2C(C)C(=O)NCc1ccccc1Cl (stereo unspecified)	i	-0.03
Cc1cc(=O)[nH]c2c1c(=O)[nH]n2C1CCCCC1	i	0.19
CCCn1c(=O)c2sccc2n2c(SCc3cc(C)ccc3C)nnc12	i	0.48
CC(=O)N1CCCSc2ccc(S(=O)(=O)NCC3CCCO3)cc21 (stereo unspecified)	i	1.2
O=C(CCn1cnc2onc(-c3cccc(F)c3)c2c1=O)NCc1ccc(Cl)cc1	i	0.44
CCOc1cccc(CNC(=O)c2ccc(N3CCCC3)c(NC(=O)Nc3cccc(Cl)c3)c2)c1	i	0.31
O=C1CC(c2ccccc2)Cc2[nH]c(=O)c(C(=O)NCc3ccc(Cl)cc3)cc21 (stereo unspecified)	i	0.35
O=C(Nc1ccccc1SCc1nnc(-c2ccccc2)o1)c1ccccc1	i	-0.3
O=C(C1CCN(c2nccn3nc(-c4ccccc4)cc23)CC1)N1CCN(c2ccccn2)CC1	i	0.95
COc1ccc(-c2cc3n(n2)CCC(=O)N3Cc2ccc(C(=O)NC3CCS(=O)(=O)C3)cc2)cc1 (stereo unspecified)	i	0.9
CN(C)CCNC(=O)CN1C(=O)COc2ccc(C(=O)N(C)C)cc21	i	-0.55
Cc1cccc(NC(=O)CSc2nccnc2N2CCN(c3cc(C)ccc3C)CC2)c1	i	-0.01
CN(C)CCOC(c1ccc(Cl)cc1)c1ccccn1 (stereo unspecified)	i	-0.2
NS(=O)(=O)c1ccc(NC(=O)c2cc3c([nH]c2=O)CCCC3=O)cc1	i	-0.86

Three entries out of the list, arranged by molecular weight, highest first.
SMILES	Anaer choline gr	Anaer choline gr early
Cc1c(C)n(-c2ccccc2)c2ncn(CC(=O)NCCc3ccc(S(N)(=O)=O)cc3)c(=O)c12	i	-0.41
CCOC(=O)c1cc(C)n(CC2CCC(C(=O)Nc3ccc(OC)cc3)CC2)c1C (stereo unspecified)	i	-1
CCCNC(=O)Cn1nc(-c2ccc(C)cc2)c2cnc3ccc(CC)cc3c21	i	-0.78

Next section.
SMILES	Anaer choline gr	Anaer choline gr early
COc1cccc(C(=O)Nc2c(C)nc(Nc3ccccc3)nc2Nc2ccccc2)c1	i	0.09
Cc1ccc(-c2nc(SCc3cc(=O)c4cc(C(N)=O)ccc4[nH]3)n[nH]2)cc1	i	0.19
CCOC(=O)c1[nH]c(C)c(CN(Cc2ccc(C)cc2)C(=O)Nc2ccccc2OCC)c1C	i	0.26
O=C(NCCN1CCOCC1)C(c1ccccc1)N1Cc2ccccc2C1=O (stereo unspecified)	i	0.16
CCC(C)NC(=O)COc1nc(C)nc2onc(-c3ccc(F)cc3)c12 (stereo unspecified)	i	-0.53
CCCCCCNC(=O)c1cccc(-c2cnc(N3CCCC3)nc2)c1	i	0.16
COCC(=O)Nc1cc2c(cc1Oc1ccc(OC)cc1)n(C)c(=O)c(=O)n2C	i	0.06
Cc1cc(=O)[nH]c2c1c(C)nn2-c1ccc(Cl)cc1	i	0.2
CCc1nc(CN2C(=O)COc3ccc(S(=O)(=O)N(C)C4CCCCC4)cc32)no1	i	-0.68
CCOC(=O)C1CCN(c2nccn3nc(-c4ccc(OC)cc4)cc23)CC1	i	-0.37
CC(C)Cn1cnc2nc(CSc3ccccc3NC(=O)COc3ccccc3F)cc(=O)n21	i	8.5
CCn1c(CN(C)C(=O)NCC2CCCO2)nc2cc(C(=O)N(C)C)ccc21 (stereo unspecified)	i	-0.49
CC1CC(=O)c2cnc(N3CCN(C)CC3)nc2C1 (stereo unspecified)	i	-0.09
O=C1O[C@H]([C@@H](O)CO)C(O)=C1O	i	-0.06
Cc1nn(-c2ccc3nnc(C)n3n2)c2c1C(c1ccc(OCc3ccccc3Cl)cc1)CC(=O)N2 (stereo unspecified)	i	-0.33
CC(C)n1c(=O)c2nscc2n(CC(=O)NC2CCCC2)c1=O	i	1.8
O=C(Nc1ccc2c(c1)OCCO2)c1nc(Nc2ccccc2)c2ccccc2n1	i	0.5
O=S(=O)(c1ccc(Cl)cc1)c1nc(-c2ccc(F)cc2)oc1N1CCCC1	i	-0.17
CCOc1ccc(-n2cc(C(=O)Nc3cnc4ccccc4c3)nn2)cc1	i	-0.26
CCOC(=O)c1cc(C)nc2c1c(=O)n(Cc1nc(-c3ccc(OC(C)C)cc3)oc1C)c(=O)n2C	i	0.32
Cc1ccc(-n2nnc(C(=O)Nc3ccc(S(N)(=O)=O)cc3)c2C)cc1	i	-0.64
CCC(C)NC(=O)CSc1cc(C)nc2c(-c3ccc(F)cc3)cnn12 (stereo unspecified)	i	0.11
C[C@H]1COc2c(C3(N)CC3)c(F)cc3c(=O)c(C(=O)O)cn1c23	i	-2.1&0.62
Cc1nc2nc(C)c(CCC(=O)NC(C)CCc3ccccc3)c(C)n2n1 (stereo unspecified)	i	-0.65
O=C(NCc1ccc(F)c(Cl)c1)C1CCCN(c2ncnc3c2oc2ccccc23)C1 (stereo unspecified)	i	-0.65

(list continues)
SMILES	Anaer choline gr	Anaer choline gr early
O=C(COc1cc(O)c2c(=O)c3ccccc3oc2c1)c1ccccc1	i	1
COC(=O)c1c(-c2cccc(Cl)c2)noc1NC1CCCC1	i	0.75
O=C(CN1C(=O)CSc2ccc(C(=O)N3CCCC3)cc21)Nc1ccc2c(c1)OCCO2	i	0.32
Cc1cc(N2CCCC2)n2nc(-c3ccc(C(C)(C)C)cc3)nc2n1	i	0.25
COc1ccc(C)cc1NCC(O)Cn1nnnc1-c1ccccc1 (stereo unspecified)	i	0.25
COc1ccc(-c2cc(N3CCN(S(=O)(=O)c4cc(OC)ccc4OC)CC3)ncn2)cc1	i	0.26

Compound profiles (already shown). Order of screens: Anaer choline gr, Anaer choline gr early
COc1ccc(C)cc1NCC(O)Cn1nnnc1-c1ccccc1 (stereo unspecified) is listed with i, 0.25
COc1ccc(-c2cc(N3CCN(S(=O)(=O)c4cc(OC)ccc4OC)CC3)ncn2)cc1 is listed with i, 0.26

Compound activity as filed in PubChem.
